Screening data deposited in PubChem BioAssay by National Center for Advancing Translational Sciences (NCATS).
MARV entry inh – blocks Marburg virus binding to or entry into cells | Potency, µM (highest dose often 37.8 µM), for inactives: top-dose activity change, negative = inhibition, hits mostly inhibitors | hit rate 1.8% among 300,000 | Marburg virus pseudotyped entry inhibition, cell reporter; control for the full effect not named in the record; about a third of the inactives were read at about 46 µM; active = well fitted inhibition curve with a large enough effect; inconclusive = small, poorly fitted or top-dose-only effect, or effect the other way; inactive = flat fitted curve, though single readings scatter; tested in HEK293 cells; about a fifth of its hits are not listed in these tables; further: luciferase read-out
Lassa entry inh – blocks Lassa virus binding to or entry into cells; Lassa virus pseudotype entry inhibition, cell reporter; control for the full effect not named in the record; Potency, µM (doses to about 37.9 µM), for the others: at the highest dose activity change, negative = inhibition, hits mostly inhibitors; hit rate 1.2% among 300,000; AID 540256; active means well fitted inhibition curve with a large enough effect; inconclusive means small, poorly fitted or top-dose-only effect, or effect the other way; inactive means flat fitted curve, though single readings scatter; tested in HEK293 cells; further: nearly all actives have a fitted effect of over 50% in size; luciferase read-out
Numbers without * were called inactive; ? = inconclusive; . = not tested or not shown; [ ] = another dose, or the depositor's remark. On the % scale 0 is the no-effect control and ±100 the full control effect; potency means the concentration at half of the fitted maximal effect. Not all compounds are listed (hit frequency here may not be typical).

#	Molecule	MARV entry inh	Lassa entry inh
1	COc1ccc(OCC2CN(Cc3ccccc3)S(=O)(=O)CCO2)cc1 (stereo not drawn)	.	-0.7%[46.1 µM]
2	O=S1(=O)c2ccc(Br)cc2-n2nncc2CN1Cc1ccc(C(F)(F)F)cc1	.	8.4%[46.1 µM]
3	Cc1cccc(CN2CCN([C@H]3C[S+](=O)([O-])N[C@H]3COCc3ccccc3)CC2)c1	.	?
4	CC(=Nc1ccc(S(N)(=O)=O)cc1)c1c(O)[nH]c2ccccc12	.	?
5	Nc1nonc1-c1nc2cnccc2n1C1CCCCC1	.	-15.1%
6	COc1cccc(-n2ncc3c(NN=Cc4ccc(C(=O)NCCN(C)C)cc4)ncnc32)c1	.	?
7	CNC(=O)c1cncc(C=Cc2c(Cl)cccc2Cl)c1	.	?
8	Fc1ccc(-c2ncn(CCCN3CCOCC3)c2-c2ccncc2)cc1	.	?
9	CCCCOCC1CN(CCCC)S(=O)(=O)c2c(Oc3ccc(C(C)C)cc3)cccc2O1 (stereo not drawn)	.	?
10	O=S1(=O)N[C@@H](Cc2ccccc2)COc2cccc(N3CCCCC3)c21	.	4.2%[46.1 µM]
11	O=C(OCc1cn([C@H]2CN(C(=O)c3cccs3)[C@@H](c3ccc(Cl)cc3)C[C@H]2O)nn1)c1ccccc1	.	7.5%[46.1 µM]
12	CS(=O)(=O)CCNCc1ccc(-c2ccc3ncnc(Nc4ccc(OCc5ccccc5)c(C(F)(F)F)c4)c3c2)o1	.	?

Two entries drawn at random from those above, as already listed:
#	Molecule	MARV entry inh	Lassa entry inh
3	Cc1cccc(CN2CCN([C@H]3C[S+](=O)([O-])N[C@H]3COCc3ccccc3)CC2)c1	.	?
5	Nc1nonc1-c1nc2cnccc2n1C1CCCCC1	.	-15.1%

Further structures.
#	Molecule	MARV entry inh	Lassa entry inh
13	c1ccc(COc2ccc(Nc3ncnc4ccc(-c5ccco5)cc34)cc2)cc1	.	?
14	O=C(Nc1n[nH]c2cc(-c3ccc(F)cc3)ccc12)C1CC1	.	?
15	C#Cc1cccc(Nc2ncnc3ccc(OCCCCNCCS(C)(=O)=O)cc23)c1	.	?
16	Cc1ccc(C(=O)NC2CCCCC2)cc1-c1ccc(C(=O)NCC2CC2)cc1	.	1.41µM*
17	O=C(NCC1CC1)c1ccc(-c2cccc(C(=O)NC3CC3)c2)cc1	.	?
18	COc1cccc(CNS(=O)(=O)c2ccccc2Br)c1	.	?
19	NS(=O)(=O)c1ccc(-c2ccc3c(NC(=O)C4CC4)n[nH]c3c2)cc1	.	?
20	NS(=O)(=O)c1ccc(N=Nc2c(O)[nH]c3ccc(C(=O)NCCc4cnc[nH]4)cc23)cc1	.	4.99µM*
21	N/C(CCN1CCCCC1)=N\O	-5.0%	.
22	O=C1[C@H]2[C@H]3[C@H](O)[C@H](O)C/C(=N/OCc4ccccc4)[C@H]3CC[C@@H]2C(=O)N1C[C@@H]1CCCO1	-6.8%[14.2 µM]	.
23	CC(=O)OC[C@@H]1O[C@H](CCO/N=C(\C)CCC(=O)OC[C@@H]2O[C@H](C#Cc3ccccc3)C=C[C@@H]2Oc2ccc(C)cc2)C=C[C@@H]1OC(C)=O	21.3%[14.2 µM]	.
24	COCOc1ccc(Br)cc1C(=O)[C@H]1O[C@H]1c1cccc(OC)c1	-17.3%[14.2 µM]	.

Single records (already shown):
Record of `Cc1cccc(CN2CCN([C@H]3C[S+](=O)([O-])N[C@H]3COCc3ccccc3)CC2)c1` : MARV entry inh = .; Lassa entry inh = ?
Record of `O=C(OCc1cn([C@H]2CN(C(=O)c3cccs3)[C@@H](c3ccc(Cl)cc3)C[C@H]2O)nn1)c1ccccc1` : MARV entry inh = .; Lassa entry inh = 7.5%[46.1 µM]

Continuation.
#	Molecule	MARV entry inh	Lassa entry inh
25	CC(C)=CCN1C(=O)[C@]2(O[C@H](C)CC3=CCCC32)c2c(Br)cccc21 (stereo partly drawn)	3.5%[14.2 µM]	.
26	C[C@@H]1CC[C@H]2C(=O)N(Cc3cccc([N+](=O)[O-])c3)C[C@@H](O)CN2[C@@H]1c1ccc(Br)cc1	-13.1%[14.2 µM]	.
27	COC1=C[C@H](C(=O)NCc2ccccn2)[C@@]2(C)Cc3ccccc3[C@@H]2CC1=O	-29.0%[14.2 µM]	.
28	C[C@@H]1CC[C@H]2C(=O)O[C@@H](Cc3ccccc3)CN2[C@@H]1c1ccc(Br)cc1	7.1%[14.2 µM]	.
29	COc1ccc(/C(O)=C2\C(=O)C(=O)N(CCN3CCOCC3)[C@H]2c2cccnc2)cc1OC	1.5%	.
30	C=C(CCN1C=C(C(C)=O)C(c2ccccc2)NC1=O)c1ccc(OC)cc1 (stereo not drawn)	12.4%[14.2 µM]	.
31	CC(C)[C@@H](CO[Si](C)(C)C(C)(C)C)N1C[C@@H](N2CCCC2)CS1(=O)=O	?	.
32	COc1ccc([C@H](CC(=O)N2CCOCC2)C(C)C)cc1	-0.8%	.
33	COc1ccc(O[C@H]2C=C[C@@H](c3ccccc3)O[C@H]2CO/N=C2/[C@H]3O[C@@H]3[C@@H](O)[C@H]3[C@H]2CCn2c(=O)n(-c4ccccc4)c(=O)n23)cc1	4.6%[14.2 µM]	.
34	CCN1C(=NCC(C)C)N[C@@H](CCc2ccccc2)[C@H](C(=O)OC)[C@H]1C	?	.
35	CCOC(=O)CN1C(=O)[C@]2(O[C@H](C)CC3=CCCC32)c2c(Br)cccc21 (stereo partly drawn)	?	.
36	CCN1C(=NCc2cccc(C(F)(F)F)c2)NC(c2cccc(C(F)(F)F)c2)C(C(=O)OC)=C1C (stereo not drawn)	?	.
37	CCCNC(=O)OC[C@@H]1O[C@H](CCO/N=C(\C)CCN2CCCCc3nc(C)c(C)cc32)C=C[C@@H]1Oc1ccc(OC)cc1	-26.3%[14.2 µM]	.
38	COc1ccc(C=CC2=C[C@]3(C)C[C@]2(C)[C@H](c2ccc(OC)cc2)CC3=O)cc1	3.8%[14.2 µM]	.
39	C[C@@H]1CN(C2CCN(C(=O)c3ccccc3)CC2)C[C@H](C)O1	0.0%	.
40	CCOC(=O)/C=C1\NC(C)(C)CC2=C1CC(O)=C(OC)C2	8.0%	.
41	CCOC(=O)N[C@H](O)C(=O)c1cccs1	-9.3%	.
42	CCOC(=O)[C@]12C[C@@H]3OCCN(C(=O)N[C@@H]1c1ccccc1)[C@@H]32	1.5%[14.2 µM]	.
43	CCN1C(=O)NC(c2ccccc2)C(C(=O)OC)=C1C (stereo not drawn)	7.3%[14.2 µM]	.
44	C[C@H]1C[C@@H](C)O[C@@]2(C1)C(=O)N(Cc1ccc(F)cc1)c1ccccc12	28.5%[14.2 µM]	.
45	CCCCN1CC(COc2ccccc2)Oc2cc(Br)ccc2S1(=O)=O (stereo not drawn)	?	.
46	COC(=O)N[C@H](C(C(=O)OC)=C(C)NCc1ccccc1)c1ccco1	-23.9%[14.2 µM]	.
47	C=C(C)C(=O)C=Cc1ccc(Br)cc1	6.0%[14.2 µM]	.
48	CC1=CC[C@@H](COc2ccccc2)O[C@@]2(C1)C(=O)N(Cc1ccc(Br)cc1)c1cccc(Br)c12	46.4%[14.2 µM]	.

4 of the compounds above, with each value named.
44: C[C@H]1C[C@@H](C)O[C@@]2(C1)C(=O)N(Cc1ccc(F)cc1)c1ccccc12
  MARV entry inh = 28.5%[14.2 µM] | Lassa entry inh = .

45: CCCCN1CC(COc2ccccc2)Oc2cc(Br)ccc2S1(=O)=O (stereo not drawn)
  MARV entry inh = ? | Lassa entry inh = .

46: COC(=O)N[C@H](C(C(=O)OC)=C(C)NCc1ccccc1)c1ccco1
  MARV entry inh = -23.9%[14.2 µM] | Lassa entry inh = .

47: C=C(C)C(=O)C=Cc1ccc(Br)cc1
  MARV entry inh = 6.0%[14.2 µM] | Lassa entry inh = .

Remaining list, next part:
#	Molecule	MARV entry inh	Lassa entry inh
49	O=C(O)CCCN=C1NC2(CCCC2)CC2=C1CCCC2	-0.1%	.
50	CCCNC(=O)OC[C@H]1O[C@H](CCO/N=C2\C[C@@H](O)[C@@H](O)[C@@H]3[C@@H]4C(=O)N(CC)C(=O)[C@@H]4CC[C@@H]23)C=C[C@@H]1Oc1ccc(OC)cc1	0.3%[14.2 µM]	.
51	CC(C)[C@@H](OCc1ccccc1)[C@H](C)C=NOC[C@@H](C)[C@H](OCc1ccccc1)C(C)C	25.4%[14.2 µM]	.
52	CC(=O)[C@]12[C@H](c3ccccc3)[C@@H]3CCN(C(=O)N[C@H]1c1ccccc1)[C@@]32C	?	.
53	O=C1OC2(CCCCC2)CC2=C1[C@H]1O[C@](c3ccsc3)(Cc3ccccc31)O2	?	.
54	CCCN1C(=O)C2=NC(C3CCCC3)=NC2N(CCC)C1=O (stereo not drawn)	14.4%	.
55	COCC=CC1=CC2=CC(=O)C(C)(OC(=O)c3cnc4ccccc4n3)C(=O)C2=CN1Cc1ccccc1 (stereo not drawn)	18.6%[14.2 µM]	.
56	CC(C)=CCC/C(C)=C/CO/N=C1/C[C@@H](O)[C@@H](O)[C@@H]2[C@@H]3C(=O)N(Cc4ccccc4)C(=O)[C@H]3CC[C@H]12	3.0%[14.2 µM]	.
57	COCCN1C(=O)NC(c2cccc(F)c2)C(C(C)=O)=C1C (stereo not drawn)	-6.0%[14.2 µM]	.
58	C[C@H]1Cc2c(-c3ccccc3)nc3c(c2CO1)CN(S(=O)(=O)c1ccc(Cl)c2nonc12)CC3	?	.
59	CCCOc1ccc(N2C(=O)C[C@@H](N(Cc3ccc(S(N)(=O)=O)cc3)C(=O)CC)C2=O)cc1	2.6%	.
60	CC1=CC[C@@H](C)O[C@@]2(C1)C(=O)N(Cc1ccc(F)cc1)c1ccccc12	?	.
61	CCCC[C@@H]1C[C@H]1C(=O)Nc1ccc(OC)c(OC)c1	1.4%	.
62	O=S1(=O)c2cccc(Cl)c2OC[C@H](c2ccccc2)N1Cc1ccc(F)cc1	?	.
63	COc1ccc(N2C(=O)[C@@H]3[C@@H](C2=O)[C@@H]2C=C[C@H]3C23CC3)c(OC)c1	13.6%[46.1 µM]	.
64	O=C1N(Cc2ccc(Br)cc2)c2cccc(Br)c2[C@@]12O[C@H](COc1ccccc1)CC1=CCCC12 (stereo partly drawn)	11.3%[14.2 µM]	.
65	Cc1ccccc1N1C(=O)[C@@H]2[C@H](ON(c3ccccc3)[C@H]2c2ccncc2)C1=O	-6.2%	.
66	O=C1[C@H]2[C@H]3[C@H](O)[C@H](O)C/C(=N\OCc4ccccc4)[C@H]3CC[C@H]2C(=O)N1Cc1ccc2c(c1)OCO2	-37.8%[14.2 µM]	.
67	O=C(C=Cc1ccccc1)Nc1cccc(C(=O)N2CCCCC2)c1	?	.
68	C[N+]1(CCNC(=O)/C=N\O)CCCCC1	5.4%[46.1 µM]	.
69	Cc1cc2c(c(=O)n1-c1ccccc1)[C@H]1O[C@](c3ccsc3)(Cc3ccccc31)O2	?	.
70	COc1ccc(COC(=O)N/N=C2\C[C@@H](O)[C@@H](O)[C@@H]3[C@@H]4C(=O)N(Cc5ccc6c(c5)OCO6)C(=O)[C@@H]4CC[C@@H]23)cc1	4.1%[14.2 µM]	.
71	COC(=O)/C=C1/OC(c2ccccc2)=CC1=O	8.0%	.
72	C=CCOC(=O)C(C(=O)CC)[C@@H](NC(=O)OC)c1ccc(F)cc1 (stereo partly drawn)	-24.9%[14.2 µM]	.
73	COc1ccc(-c2nnc3sc(-c4c(OC)cccc4OC)nn23)cc1	-1.6%	.
74	O=C1O/C(=C\Br)CC[C@@H]1c1cccc2ccccc12	?	.
75	C#CCCCO/N=C1/C[C@@H](O)[C@@H](O)[C@@H]2[C@@H]3C(=O)N(C4CCCCC4)C(=O)[C@H]3CC[C@@H]12	42.8%[14.2 µM]	.
76	CC(C)CO/N=C1\C[C@@H](O)[C@@H](O)[C@@H]2[C@@H]3C(=O)N(C[C@@H]4CCCO4)C(=O)[C@@H]3CC[C@@H]12	-9.9%[14.2 µM]	.
77	COC(=O)C1=C(C)N(Cc2ccccc2)C(=NCc2cc(OC)c(OC)c(OC)c2)NC1CCc1ccccc1 (stereo not drawn)	?	.
78	C[C@@H](c1ccccc1)N1C(=O)[C@@H]2[C@H]3[C@H](O)[C@H](O)CC(=NOC[C@@H](O)COCc4ccco4)[C@H]3CC[C@H]2C1=O	1.0%[14.2 µM]	.
79	O=C1[C@@H]2[C@H]3[C@H](O)[C@H](O)C/C(=N/OCc4ccccc4)[C@@H]3CC[C@H]2C(=O)N1c1ccc(F)cc1F	?	.
80	CCOC(=O)[C@@]1([C@@H](NC(=O)OC)c2ccco2)CCCC1=O	-8.5%[14.2 µM]	.
81	C/C(CCN1CCCCc2nc(C)c(C)cc21)=N\OC[C@@H](O)[C@@H]1O[C@@H]2OC(C)(C)O[C@@H]2[C@H]1O	18.5%[14.2 µM]	.
82	CC(=O)OC[C@H]1O[C@H](CC=NO[C@H](C)CN2CCCCc3nc(C)c(C)cc32)C=C[C@@H]1OC(C)=O	-20.6%[14.2 µM]	.
